OX1R antag-1: human HCRTR1 antagonism. AID 434989. inhibition, % at 5 µM. actives 0.43% (n = 330,000). CHO/OX1R cells, Fluo-8 calcium fluorescence, orexin A. O43613;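 active = inhibition above its plate's threshold, mean inhibition of all tested compounds on the plate plus 3 SD, cut at about 37% in these data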;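 also: 0% = orexin A challenge wells and 100% = SB-334867-A antagonist wells; not every result past the cut was called active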
Target sequence (O43613 whole entry, looked up): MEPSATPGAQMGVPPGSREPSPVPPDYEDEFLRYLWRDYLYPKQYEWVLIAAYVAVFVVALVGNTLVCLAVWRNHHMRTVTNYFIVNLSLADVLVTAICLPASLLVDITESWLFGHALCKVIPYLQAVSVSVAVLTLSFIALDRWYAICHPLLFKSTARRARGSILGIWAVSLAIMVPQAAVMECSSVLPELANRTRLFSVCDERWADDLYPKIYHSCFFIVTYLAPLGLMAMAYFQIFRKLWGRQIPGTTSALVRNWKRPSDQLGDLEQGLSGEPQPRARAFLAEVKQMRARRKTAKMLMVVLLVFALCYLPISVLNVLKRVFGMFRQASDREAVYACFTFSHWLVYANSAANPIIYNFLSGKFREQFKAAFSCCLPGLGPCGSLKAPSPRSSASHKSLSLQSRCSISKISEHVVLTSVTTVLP
OX1R antag-2: antagonists of human orexin 1 receptor (OX1R). OX1R-expressing cells, FRET antagonist read-out. actives 1.8% (n = 330,000). AID 485270. O43613. inhibition, % at 6.6 µM; in the data active = inhibition mostly above about 38%, no sharp cut-off; inactive = mostly below about 40%;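 also: 0% = agonist challenge alone and 100% = reference antagonist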
* hit, by the source's call.

The first 7 records, ahead of the listing:
SMILES,OX1R antag-1,OX1R antag-2
CN(C)/N=C/c1ccc(P(c2ccc(/C=N/N(C)C)o2)c2ccc(/C=N/N(C)C)o2)o1,-17,16
COc1ccc(-n2cnc3sc(-c4ccccc4)cc3c2=O)cc1,-24,2
CC(C)CC(NC(=O)C1CCC(C)CC1)C(=O)NCc1ccccn1 (stereo not given),-31,17
CCC(C)Sc1cc(C)c(C#N)c2nc3ccccc3n12 (stereo not given),-35,28
COc1ccc(-c2nc(CN3CCN(Cc4cccc(F)c4)CC3)c(C)o2)cc1,-35,11
CCOc1cc(CN2CCCCCC2)ccc1OC,-17,5
CCCC(=O)NC(c1ccco1)c1cc([N+](=O)[O-])c2cccnc2c1O (stereo not given),-15,14

The whole of this part, repeating the preview:
SMILES,OX1R antag-1,OX1R antag-2
CN(C)/N=C/c1ccc(P(c2ccc(/C=N/N(C)C)o2)c2ccc(/C=N/N(C)C)o2)o1,-17,16
COc1ccc(-n2cnc3sc(-c4ccccc4)cc3c2=O)cc1,-24,2
CC(C)CC(NC(=O)C1CCC(C)CC1)C(=O)NCc1ccccn1 (stereo not given),-31,17
CCC(C)Sc1cc(C)c(C#N)c2nc3ccccc3n12 (stereo not given),-35,28
COc1ccc(-c2nc(CN3CCN(Cc4cccc(F)c4)CC3)c(C)o2)cc1,-35,11
CCOc1cc(CN2CCCCCC2)ccc1OC,-17,5
CCCC(=O)NC(c1ccco1)c1cc([N+](=O)[O-])c2cccnc2c1O (stereo not given),-15,14
CCC1CCCCN1CCCNC(=O)c1cc2c(=O)oc3ccc(C)cc3c2s1 (stereo not given),-19,24
O=S(=O)(c1ccc(F)cc1)n1ccc(-c2cnc(-c3ccccc3)s2)n1,-27,11
CN(C)S(=O)(=O)c1ccc(C(=O)Nc2ccnn2C2CCCCC2)cc1,-22,25
CC(NC(=O)C(NC(=O)C1CCCN1C(=O)OC(C)(C)C)C(C)C)C(N)=O (stereo not given),-6,5
O=C(Nc1ccc(F)c(F)c1)c1ccccc1-c1ccccc1,-10,15
Clc1nc2ccccc2nc1-c1ccccc1,-5,3
Cc1ccc(-n2nnc3ccccc3c2=O)cc1C,-19,14
N#CC1(NC(=O)COC(=O)C23CC4CC(CC(O)(C4)C2)C3)CCCCC1,0,19
CC(C)c1ccc(/C=C/C(=O)NCCCc2ccccc2)cc1,-19,6
CCOC(=O)Cc1cnc(NC(=O)CSc2nc(C)cc(C)n2)s1,-15,12
Cc1nc(CCNC(=O)CC2C(=O)NCCN2Cc2ccccc2F)sc1C (stereo not given),-7,13
Cc1cc(NC(=O)CC#N)n(-c2ccccc2)n1,-11,38
CC(C)CCN1CCN(Cc2ccc(C#CCCO)cc2)CC1CCO (stereo not given),-24,8
C=CCc1ccccc1OCCn1ccnc1,-10,13
C=CCn1c(C2CC(=O)N(c3ccc(C)cc3)C2)nc2ccccc21 (stereo not given),-22,9
CCc1ccc(CN(C)C(=O)C2CCC(=O)N(CC3CCCCC3)C2)cc1 (stereo not given),-42,23
Fc1ccc(-c2cn3ccccc3n2)cc1,-7,13
CN(CC(=O)Nc1ccc(S(=O)(=O)N2CCCC2)cc1)Cc1ccc(Cl)c(Cl)c1,-34,7
CCOC(=O)C1CCN(C(=O)CCc2nnc3ccc(NCc4ccco4)nn23)CC1,-6,4
Nc1ccc(OC(=O)Nc2ccc(O)cc2)cc1,3,11
COc1ccc(C(=O)OCCCOC(=O)c2ccc(OC)cc2OC)c(OC)c1,-8,51
CCc1ccc(OC(=O)c2ccn(CC)n2)cc1,-12,5
CCOC(=O)C(CC)(CCC(=O)O)c1csc(N)n1 (stereo not given),-11,8

3 of the entries above in order of their number in OX1R antag-2, low to high:
SMILES,OX1R antag-1,OX1R antag-2
C=CCn1c(C2CC(=O)N(c3ccc(C)cc3)C2)nc2ccccc21 (stereo not given),-22,9
C=CCc1ccccc1OCCn1ccnc1,-10,13
COc1ccc(C(=O)OCCCOC(=O)c2ccc(OC)cc2OC)c(OC)c1,-8,51

The list continues.
SMILES,OX1R antag-1,OX1R antag-2
Cc1cc(C(=O)c2cnc(/N=C/N(C)C)s2)c(F)cc1Cl,-6,26
CS/C(=C(/C#N)S(=O)(=O)c1ccc(Cl)cc1)N1CCOCC1,-4,13
CC1CCN(S(=O)(=O)c2cccc(C(=O)Nc3ccccn3)c2)CC1,-27,11
CC1(C)CC(=O)C=C(NCc2ccccc2)C1,-17,3
CN(C)c1ccc(C(=O)NCC(c2cccs2)N2CCOCC2)cc1[N+](=O)[O-] (stereo not given),-28,22
Cc1ccc2nc(-c3ccc(NC(=O)CSCC(=O)O)cc3)sc2c1,1,3
Cc1cccc(N2CC(C(=O)O)CC2=O)c1 (stereo not given),-16,8
CCN(C#N)c1nc(NC(C)C)nc(NC(C)C)n1,-16,8
CC(=O)N1CCCC(N2CCN(c3cccc(C(F)(F)F)c3)CC2)C1 (stereo not given),-29,3
Cc1ccc(C(=O)CSc2nnnn2C(C)C)c(C)c1,-17,4
Cc1ccsc1CN(C)Cc1nc(C2CC2)no1,1,4
CCC(C)N(C(=O)COc1ccc(Cl)c2cccnc12)C1CCS(=O)(=O)C1 (stereo not given),-36,16
COc1cc(NC(=O)c2cc(-n3cnnc3)ccc2Cl)cc(OC)c1,-18,24
O=C(NCc1ccccc1)C(c1cccnc1)N(C(=O)c1ccccn1)c1cccc(F)c1 (stereo not given),-25,14
CCN(Cc1ccccc1)C(=O)c1cc(S(=O)(=O)N2CCOCC2)ccc1N1CCCC1,-26,2
C=CCN(C(=O)c1csnn1)C(C(=O)NC1CCCCC1)c1ccc(F)cc1 (stereo not given),-17,31
Cc1ccc(S(=O)(=O)N(c2nc(N(C)C)nc(N(C)C)n2)n2cnnc2)cc1,-39,8
COc1ccc(-c2cn3ccc4ccccc4c3n2)cc1,-44,30
COc1ccc(OC(=O)Cc2cccc3ccccc23)cc1,-22,3
Cc1cc(C#N)c(C)n1-c1cc(C(F)(F)F)ccc1N1CCOCC1,-28,5
O=C1C=C(NCCNc2c(F)c(F)c(CO)c(F)c2F)CCC1,-7,3
O=C(NCc1ccc2c(c1)OCO2)c1ccc2snnc2c1,-10,16
Cc1sc2nc(SCC(=O)NCCO)n(C)c(=O)c2c1C,2,10
CC(=O)NC(=S)Nc1cccc([N+](=O)[O-])c1,-2,36
COc1ccc(C2(C(=O)NCc3ccccc3Cl)CCOCC2)cc1OC,-6,18
Cc1ccc(C)c(Cn2c(CO)nc3ccccc32)c1,-8,11
C[C@]12C=CC(=O)C=C1CC[C@H]1[C@@H]3C[C@@H](O)[C@](O)(C(=O)CO)[C@@]3(C)C[C@H](O)[C@@]12F,-3,17
O=C(NC(=O)c1c(F)cccc1F)Nc1ccccc1SC(F)F,-2,3
Cc1cc(C)c(C)c(OCC(=O)NCc2nc(-c3ccccc3)no2)c1,-17,12
O=C(NCCCN1CCCC1=O)c1ccc2c(c1)ncn2C1CCCCC1,-18,7

Three entries from above, sorted by heavy-atom count, largest number first.
SMILES,OX1R antag-1,OX1R antag-2
COc1cc(NC(=O)c2cc(-n3cnnc3)ccc2Cl)cc(OC)c1,-18,24
CCC(C)Sc1cc(C)c(C#N)c2nc3ccccc3n12 (stereo not given),-35,28
CC(=O)NC(=S)Nc1cccc([N+](=O)[O-])c1,-2,36

Copied from the list.
In OX1R antag-1, `Fc1ccc(-c2cn3ccccc3n2)cc1` shows -7
In OX1R antag-2, `O=C(NCc1ccccc1)C(c1cccnc1)N(C(=O)c1ccccn1)c1cccc(F)c1` (stereo not given) shows 14

(continued)
SMILES,OX1R antag-1,OX1R antag-2
O=C(CNC(=O)C1CCCCC1)Nc1cc(Cl)cc(Cl)c1,-15,13
Cc1cccc(-c2nc3c(c(SCC(=O)N4CCOCC4)n2)CCCC3)c1,-9,19
O=C(CN1CCCCC1)NNC(=O)c1ccc([N+](=O)[O-])cc1,-1,35
COc1ccc(N2CC(O)=C(c3nc(-c4ccc(Cl)cc4)cs3)C2=N)cc1,-29,5
CC(=O)Nc1ccc(Nc2nc(C)nc3c2oc2ccccc23)cc1,-53,34
Cc1c(NC(NC(=O)CC(C)C)C(Cl)(Cl)Cl)c(=O)n(-c2ccccc2)n1C (stereo not given),-37,28
Cc1nc(SCCc2ccccc2)[nH]c(=O)c1C,-8,57
O=C1CC(N2CCN(Cc3ccc4c(c3)OCO4)CC2)C(=O)N1c1ccccc1 (stereo not given),-11,7
CCCSc1nc2c(c(=O)[nH]c(=O)n2C)n1Cc1ccc(C)cc1,-10,13
COCCN1C(=O)C(=O)/C(=C(/O)c2ccc(S(=O)(=O)N3CCCCC3)cc2)C1c1ccc(OC)cc1 (stereo not given),-16,17
CC(=O)Nc1cccc(NC(=O)CSc2nnc3ccc(-c4ccccn4)nn23)c1,-5,24
COC(=O)c1ccc(-c2noc(CN(C)CCC3CCCCO3)n2)cc1 (stereo not given),-22,12
O=C(O)CCC(=O)NNC(=O)CCC(=O)Nc1ccccc1,-4,9
CCc1ccc2[nH]c(C(=O)N(C)c3ccc(F)cc3F)cc2c1,-32,5
CCOC(=O)c1oc2cc(C)cc(C)c2c1C,-10,7
COCCNC(=O)c1c(N)n(CCC2=CCCCC2)c2nc3ccccc3nc12,-18,10
O=C(N/N=C/c1ccc(OC(=O)c2cccc(F)c2)cc1)c1cccnc1,-18,14
Cc1cccc(NC(=S)NCc2cccs2)c1C,-23,7
Oc1ccc(Cl)cc1CNc1nccs1,-19,4
O=C(CSc1nnc(CNC(=O)c2cccs2)o1)Nc1cccc(Cl)c1,-1,12
CN(C)CCCn1c(N)c(C#N)c2nc(C#N)c(C#N)nc21,6,24
CN(CC(=O)N1CCN(c2ccccc2)CC1)S(=O)(=O)c1cnc[nH]1,9,24
Cc1cccc(N(C(=O)c2csnn2)C(C(=O)NCc2ccccc2)c2ccncc2)c1 (stereo not given),-19,14
O=C(c1cc2c(s1)-c1ccccc1OC2)N1CCCC1,-29,5
CCCc1cc(=O)[nH]c(SCC(=O)Nc2sc3c(c2C#N)CCCC3)n1,-31,38
CCCn1c(SCC(=O)N2CCN(CC)CC2)nc2c1c(=O)n(C)c(=O)n2C,-15,17
COc1ccc(CCNC(=O)C2CCN(C(=O)c3ccc([N+](=O)[O-])cc3)CC2)cc1,-4,39
CCOc1ccc(NC(=O)CN2C(=O)c3ccccc3C2=O)cc1,-6,9
Cc1c(C(=O)NCC2CCCO2)oc2ccc(S(=O)(=O)N3CC(C)CC(C)C3)cc12 (stereo not given),11,13
O=C(Nc1ccc2c(c1)OCO2)C1CCN(C(=O)c2ccc(Cl)cc2)CC1,-11,0
CCSc1nnc(NC(=O)C2CCN(S(=O)(=O)c3c(C)c(C)cc(C)c3C)CC2)s1,-14,10
N#CCCn1nnc(-c2ccccc2F)n1,13,0
CCC(=O)Nc1nc(C)cc(SCC(=O)OC)n1,-15,15
Cc1ccc(Cn2ccc(NC(=O)c3noc4c3CCCCC4)n2)cc1,-3,-2
O=C(OCC(=O)C12CC3CC(CC(C3)C1)C2)c1cccnc1,-10,20
CC(NC(=O)Cc1ccc(F)cc1)c1ccc(F)cc1 (stereo not given),-13,8
O=C(COc1ccc2ccccc2c1)N1CCN(c2ccccc2)CC1,-3,17
O=C(Nc1ccc(N2CCOCC2)nc1)c1ccc(F)cc1,-3,6
CCCOc1ccc(-c2nc(C#N)c(NCCCn3ccnc3)o2)cc1,-5,6
O=C(NC1=NCCS1)NC12CC3CC(CC(C3)C1)C2,3,3
CCCCCOc1ccc(NC(=O)C(=O)NCCCn2ccnc2)cc1,-8,21
O=C(NNC(=S)Nc1ccc(OC(F)F)cc1)c1cc2c(s1)CCCC2,-7,19
CC(C)c1c(C(=O)N/N=C/c2ccccc2OCc2c(F)cccc2Cl)nnn1-c1nonc1N,1,0
CCc1cc2c(=O)c(-c3nc4ccccc4n3C)coc2c(CN2CCN(C)CC2)c1O,-34,41
COc1ccc(C(=O)COC(=O)CCN=C2NS(=O)(=O)c3ccccc32)c(OC)c1,-12,8
CCN(C(=O)COC(=O)c1cc(S(=O)(=O)N2CCc3ccccc32)ccc1OC)C1CCS(=O)(=O)C1 (stereo not given),-48,15
COC(=O)c1ccccc1CSc1nsc(/C=C/N(C)C)c1C#N,-18,9
Cc1cc(C(F)(F)F)nn1Cc1ccc(C(=O)NCc2ccco2)o1,-16,1
COc1cc([N+](=O)[O-])ccc1NC(=O)CCCOc1cc(C)ccc1C,-22,8
COc1ccc(C)cc1S(=O)(=O)N(C)CC(=O)N1CCC(C)CC1,-26,16
CCOC(=O)c1cnc2c(C)cccc2c1NCCc1ccc(OC)c(OC)c1,-20,14
O=C(COC(=O)c1ccc(NS(=O)(=O)c2cccs2)cc1)NCc1ccco1,6,3
N#C/C(=C\Nc1ccc(Cl)cn1)S(=O)(=O)c1ccccc1,-33,11
CCOC(=O)/C(=N/Nc1ccccc1OC)N1CCCc2ccccc21,-32,11
Cc1ccc(NC2=C/C(=N/S(=O)(=O)c3cccs3)c3ccccc3C2=O)cc1,-12,47

Bioassay records as filed in PubChem BioAssay.

This is a subset, and most or all hits are left out here.
